Compound activity as filed in PubChem.
Rango release inh: prevents RanGTP from dissociating the Rango-importin beta complex; O95149+P62826; 340,000 compounds, 0.071% hits; Biochemical FRET Rango-importin beta, RanGTP-induced dissociation; Potency, µM (top dose mostly 46.1 µM), without a hit: at the highest dose activity change, negative = inhibition; AID 540253; active means falling FRET ratio curve, often poorly fitted, with flat reads before Ran was added; inconclusive means other falling curves, or compound fluorescence or quenching; inactive means flat or rising ratio curve;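 further: potency means the concentration at half of the fitted maximal effect; % of control where 0% means no effect; nearly all actives have a fitted effect of over 45% in size; -100% = wells without RanGTP and RCC1; the record marks most hits as doubtful in a second field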
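Compounds preincubate 5 min with complex of recombinant Rango and importin beta in PBS with 1 mM DTT. Ran (0.6 uM) loaded with 2 mM GTP plus 0.2 uM RCC1 starts dissociation; FRET is recorded 45 min later.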
Rango complex inh: prevents formation of the Rango-importin beta complex; 340,000 compounds, 0.031% hits; Potency, µM (titrated, usually from 92.2 µM), for the others: at the top dose inhibition of complex formation; Rango CFP/YFP FRET sensor + importin beta, 45 min; AID 540263; Q14974; active = rising FRET ratio curve, often small or poorly fitted; inconclusive = mostly compound fluorescence or quenching in the first reads; inactive = flat curves in all reads;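 further: potency means the concentration at half of the fitted maximal effect; 0% = DMSO wells and 100% = buffer wells lacking importin beta; nearly all actives have a fitted effect of over 15% in size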
Target sequence (Q14974 whole entry, looked up): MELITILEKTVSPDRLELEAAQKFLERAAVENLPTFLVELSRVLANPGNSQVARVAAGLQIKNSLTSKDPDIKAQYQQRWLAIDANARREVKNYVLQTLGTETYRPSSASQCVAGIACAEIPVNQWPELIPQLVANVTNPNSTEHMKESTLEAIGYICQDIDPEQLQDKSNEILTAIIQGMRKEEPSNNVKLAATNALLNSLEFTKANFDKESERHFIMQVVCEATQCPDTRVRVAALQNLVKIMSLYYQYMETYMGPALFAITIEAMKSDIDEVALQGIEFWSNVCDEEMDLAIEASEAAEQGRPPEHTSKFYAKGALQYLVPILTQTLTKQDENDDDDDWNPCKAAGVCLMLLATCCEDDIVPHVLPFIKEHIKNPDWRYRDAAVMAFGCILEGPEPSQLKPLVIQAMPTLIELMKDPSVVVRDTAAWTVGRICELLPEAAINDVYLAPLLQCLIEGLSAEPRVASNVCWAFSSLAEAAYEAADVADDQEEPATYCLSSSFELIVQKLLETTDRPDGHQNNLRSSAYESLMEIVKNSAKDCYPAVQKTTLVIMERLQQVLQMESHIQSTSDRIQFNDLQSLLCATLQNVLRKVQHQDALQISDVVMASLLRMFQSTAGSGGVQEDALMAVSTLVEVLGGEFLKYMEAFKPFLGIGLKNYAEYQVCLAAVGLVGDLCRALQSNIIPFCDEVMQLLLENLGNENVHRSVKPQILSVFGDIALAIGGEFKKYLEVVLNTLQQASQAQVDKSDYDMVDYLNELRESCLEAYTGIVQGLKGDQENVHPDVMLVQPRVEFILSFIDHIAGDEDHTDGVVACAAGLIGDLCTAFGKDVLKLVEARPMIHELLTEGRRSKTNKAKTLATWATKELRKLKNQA
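FRET biosensor Rango (snurportin 1 IBB between N-terminal EYFP and C-terminal Cerulean), 50 nM in PBS/1 mM DTT/0.02% Tween-20/0.1% BSA, preincubated 5 min RT with compound; 0.125 microM importin beta added, 45 min RT, CFP/YFP FRET ratio read.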
miR-21 reporter: raises the signal of a miR-21 reporter; HeLa miR-21 FLuc reporter, luciferase, 48 h; Potency, µM (series often up to 38.3 µM), for inactives: at the top dose reporter change, positive = more light; 340,000 tested, under 10 active; active = well fitted rising curve with a large enough effect; inconclusive = small, poorly fitted or top-dose-only effect; inactive = no such curve, though single readings can be large or run the other way;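 further: % of control where 0% means no effect; miR-21 action dims this reporter so a rising signal means less miR-21 action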
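HeLa cells stably expressing CMV-driven firefly luciferase with a downstream miR-21 binding sequence, endogenously expressing miR-21, were treated with titrations (up to about 40uM final) for 48 hours at 37 degree Celsius. Luciferase luminescence was read after lysis.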
GLA inh pH 4.5: alpha-galactosidase A (human) inhibition, pH 4.5. P06280. purified enzyme, 4-MU-alpha-Gal fluorescence, pH 4.5. activity change, negative = inhibition, % at 105 µM. 230,000 tested, under 10 active. AID 1467; inconclusive = small, poorly fitted or top-dose-only inhibition, or a rising curve; inactive = flat fitted curve, though single readings scatter; no compound was filed as active;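 further: 0% = full activity with enzyme and -100% = basal without enzyme; dose as in the result columns while the protocol names 77 µM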
The depositor's hits bear a star; ? = inconclusive; nt = no result given.

Rango release inh | Rango complex inh | miR-21 reporter | GLA inh pH 4.5 | compound
14% | 0.4% | -1% | nt | O=S(=O)(NCc1ccccc1)c1ccc(Br)s1
1% | 8.7% | 0% | -6 | CN(CC(=O)O)S(=O)(=O)/C=C/c1ccccc1
-8% | 2.5% | -2% | 3 | CCCCCC(=O)NNC(=O)Cc1ccc([N+](=O)[O-])cc1
6% | -0.2% | nt | nt | Cc1cc2nc(N3CCN(C(=O)c4cccs4)CC3)sc2cc1C
-1% | 3.5% | -3% | 9 | CCCCCC1CC(/C(C)=N/NC(N)=O)OC1=O (stereo not given)
7% | -2.5% | 11% | -5 | Cc1ccc2c(c1)cc(CN(Cc1ccco1)C(=O)COc1ccccc1)c1nnnn12
-16% | 0.0% | -5% | 0 | CCC(C)Nc1nc(OCC(F)(F)F)nc(OCC(F)(F)F)n1 (stereo not given)
8% | -1.6% | -55% | nt | COc1cc(Cl)ccc1OCc1cc(C(=O)N2CCCC(OC)C2)no1 (stereo not given)
6% | -3.7% | -59% | -3 | Brc1ccc(-c2cnc(-c3cccs3)o2)cc1
21% | 1.7% | 18% | nt | COc1ccc(-c2onc(C)c2C)cc1S(=O)(=O)NCCc1ccco1
10% | 5.6% | -39% | 0 | CCc1ccc(NC2=NCC(c3ccccc3)S2)cc1 (stereo not given)
8% | -0.9% | -1% | 0 | COc1cc(OC)c2ccc(=O)oc2c1C(CCN1CCCCC1)c1ccc(N(C)C)cc1 (stereo not given)
-6% | -4.2% | nt | nt | COc1ccc(NS(=O)(=O)c2cccc(C(=O)NCCCn3ccnc3)c2)cc1
-9% | -0.4% | -10% | nt | CCc1cc(-c2nnc(SCC(=O)NC3CC3)n2C)cs1
-1% | 1.4% | -2% | 3 | CCCOc1ccc(/C=N\NC(=O)CCc2n[nH]c(=O)[nH]c2=O)cc1OC
nt | nt | 10% | 19 | O=C(NCc1ccncc1)C(=O)NCC(c1ccccc1)c1ccccc1
5% | -1.9% | -2% | nt | COc1ccc(C(C(=O)NC2CCCCC2)N(C(=O)c2snc(C(N)=O)c2N)c2ccc(OC)cc2OC)cc1 (stereo not given)
1% | -0.2% | 0% | nt | COc1ccc(S(=O)(=O)N2CCCC2)c2ccccc12
-5% | 2.0% | -8% | 9 | COc1ccc(-c2cc(C(=O)Nc3ccc(C)cc3)no2)cc1
5% | 0.4% | -4% | nt | CCOc1cc(CN2CCCC(N3CCc4ccccc4C3)C2)ccc1O (stereo not given)

More records.
Rango release inh | Rango complex inh | miR-21 reporter | GLA inh pH 4.5 | compound
1% | -0.4% | -12% | -15 | Nc1nnnn1/N=C/c1ccccc1OCc1ccc(Cl)cc1Cl
? | ? | -10% | nt | CCOc1cc(C#N)ccc1OCC(=O)N1CCc2ccccc2C1
? | ? | 18% | 3 | CN(C)c1ccc(C2C=C(c3ccc(Cl)cc3OC(F)F)Nc3ncnn32)cc1 (stereo not given)
-17% | -1.4% | -1% | 5 | C=CCc1c(C)nc(SCC(N)=O)[nH]c1=O
-1% | -0.5% | -4% | -13 | Cc1nnc(SCC(=O)N2CCC(C(=O)Nc3nccs3)CC2)n1Cc1ccccc1
0% | 2.6% | -28% | 3 | COCCn1c(C)cc(/C=C2/NC(=O)N(c3ccc(Cl)cc3)C2=O)c1C
-1% | -1.6% | -10% | 3 | COCCNC(=O)CSc1nnc(CCCN2C(=O)c3cccc4cccc(c34)C2=O)n1-c1ccccc1
10% | 7.1% | 1% | 0 | CN1CCN(C(=O)CCCOc2cc(=O)n(C)c3ccccc23)CC1
-13% | -0.1% | -1% | nt | CC(=O)Nc1ccc(S(=O)(=O)N2CCN(C(=O)N3CCCC3)CC2)cc1
-21% | ? | -9% | -2 | c1ccc(N2CCN(c3ncnc4c3oc3ccccc34)CC2)cc1
-14% | -3.5% | ? | 5 | COc1ccc(N(C(=O)c2ccccc2C)S(=O)(=O)c2cccs2)cc1
1% | -3.0% | -1% | -2 | Cn1c(=O)oc2cc(S(=O)(=O)N3CCC(C(=O)NCc4cccs4)CC3)ccc21
7% | -3.4% | -25% | 9 | O=C(c1ccco1)n1nc(-c2ccccc2)nc1SCc1ccccc1
0% | -2.4% | nt | nt | CCCCn1c(N)c(N(CC(C)C)C(=O)CN2C(=O)C3CCCCC3C2=O)c(=O)[nH]c1=O (stereo not given)
13% | 1.6% | -20% | -13 | O=C(Nc1cccc(OC(F)(F)F)c1)c1ccc(Br)o1
6% | 0.0% | 1% | 13 | O=C1NC(=Nc2ccccc2)CS1
9% | -2.3% | 1% | nt | Cc1ccc(C(=O)C2=C(O)C(=O)N(c3ncccn3)C2c2ccccc2F)o1 (stereo not given)
0% | 4.3% | ? | nt | Cc1cccc(N(Cc2cc(=O)[nH]c3ccccc23)C(=O)CCl)c1
4% | 2.2% | -3% | 0 | COC(=O)Cc1nnc(Nc2cccc(C)c2)c2ccccc12
-7% | 1.4% | -3% | -9 | CN1C(=CC=C2C=C(I)C(=O)C(I)=C2)C(C)(C)c2ccccc21

One compound at a time (already shown). Screens in order: Rango release inh	Rango complex inh	miR-21 reporter	GLA inh pH 4.5
CCCCn1c(N)c(N(CC(C)C)C(=O)CN2C(=O)C3CCCCC3C2=O)c(=O)[nH]c1=O (stereo not given) is entered as 0%	-2.4%	nt	nt
C=CCc1c(C)nc(SCC(N)=O)[nH]c1=O is entered as -17%	-1.4%	-1%	5
COCCNC(=O)CSc1nnc(CCCN2C(=O)c3cccc4cccc(c34)C2=O)n1-c1ccccc1 is entered as -1%	-1.6%	-10%	3
c1ccc(N2CCN(c3ncnc4c3oc3ccccc34)CC2)cc1 is entered as -21%	?	-9%	-2
CC(=O)Nc1ccc(S(=O)(=O)N2CCN(C(=O)N3CCCC3)CC2)cc1 is entered as -13%	-0.1%	-1%	nt

Next part
Rango release inh | Rango complex inh | miR-21 reporter | GLA inh pH 4.5 | compound
? | ? | nt | nt | COc1ccc2c3c(ccc2c1)C(=O)/C(=C/O)CC3
-12% | 0.0% | 5% | nt | CCCCCCCCCCCCN1C/C(=C\C(=O)OCC)c2cc(C(F)(F)F)ccc2S1(=O)=O
-16% | ? | 5% | 8 | Cc1ccc(C)c2[nH]c(=O)c(C(c3nnnn3Cc3ccco3)N3CCc4ccccc4C3)cc12 (stereo not given)
0% | -1.2% | 7% | 0 | CCCS(=O)(=O)N1CCN(c2cc3c(cc2[N+](=O)[O-])n(C)c(=O)n3C)CC1
-5% | -1.1% | 1% | 0 | CSc1nnc(-c2sc3cc(C(F)(F)F)cnc3c2-c2ccccn2)n1C
nt | nt | -6% | -4 | O=C(C1CCN(S(=O)(=O)c2cccc3cccnc23)CC1)N1CCN(C2CCCC2)CC1
16% | 2.5% | 0% | 2 | O=C(NC1CCCCC1)N1CCCC(CNS(=O)(=O)Cc2ccccc2)C1 (stereo not given)
13% | 0.1% | 4% | 7 | O=c1c(Cc2ccccc2)c(O)ccn1C1CCCCCCC1
-10% | 0.2% | -6% | -11 | C/C(=N\N1CCN(Cc2ccccc2Cl)CC1)c1ccc([N+](=O)[O-])cc1
13% | 4.8% | -9% | nt | Clc1ccc(SCCOCCN2CCOCC2)cc1
-11% | -0.3% | 5% | 9 | CCn1c(=O)cc(SCC(=O)N2CCN(C)CC2)c2ccccc21
8% | -0.3% | -1% | 9 | O=C(COC(=O)c1ccc(Br)o1)NCCCc1ccccc1
28% | 4.0% | 0% | 1 | Cc1cccc(OCc2nc3c4c(ncn3n2)-c2ccccc2CC42CCCC2)c1
0% | 0.9% | -7% | -1 | COc1ccc(CN2CCN(C)CC2)cc1OCc1ccccc1
-7% | 2.0% | -38% | -4 | O=C(CSCc1ccccc1Cl)NCCSc1ccccn1
-12% | 0.3% | -58% | nt | COc1ccc(OCc2cc(C(=O)N(C)Cc3cnccn3)no2)c(Cl)c1
? | ? | 1% | 2 | Cc1nc2[nH]c(=O)c3c(n2n1)NC1=C(C(=O)CC(C)(C)C1)C3c1ccc(F)cc1 (stereo not given)
-9% | -0.4% | nt | nt | CC(Sc1nnc(C(F)(F)F)n1C)C(=O)Nc1ccc(N2CCOCC2)cc1 (stereo not given)
14% | 1.1% | -14% | nt | C=CCn1c(NC(=O)c2ccccc2)nc2ccccc21
1% | 1.3% | 6% | -7 | O=C(Cc1cccs1)Nn1c(Cc2cccs2)nc2ccccc2c1=O

Going on with the list.
Rango release inh | Rango complex inh | miR-21 reporter | GLA inh pH 4.5 | compound
-1% | -0.5% | 12% | -1 | C=CCn1c(NCCc2ccccc2)nc2c1c(=O)n(C)c(=O)n2C
11% | -1.0% | 13% | nt | COc1ccc2c(c1)C=C(CN1CCN(Cc3ccccc3C)C(CCO)C1)CO2 (stereo not given)
-7% | -0.4% | nt | -6 | NCC(=O)CCC(=O)O
3% | 0.6% | -8% | 0 | ClC(Cl)c1nnc(-c2ccccc2)c(-c2c[nH]c3ccccc23)n1
41% | 1.7% | -22% | -11 | c1ccc(CC2CCN(Cc3nc(-c4ccccc4)no3)CC2)cc1
-20% | 1.2% | 22% | -7 | COc1cc(/C=N/NC(=O)c2ccccc2Cl)ccc1Oc1ccc([N+](=O)[O-])cn1
4% | -3.2% | -3% | 18 | CN(C)CCNC(=O)c1coc(=O)c(Br)c1
? | ? | nt | -6 | Cc1cccc(C2=NN(c3ccccc3)[C@@H](C(=O)N3CCOC3=O)[C@@H]2c2ccc(F)cc2)c1
-14% | ? | -3% | -3 | C=C1SC(=Nc2c(C)cc(C)cc2C)N(C(=O)c2sc3ccccc3c2Cl)C12CCCCC2
11% | 1.1% | 2% | -9 | CCC(=O)Nc1nonc1-c1nc2ccccc2n1CC(C)C
7% | 0.3% | 0% | nt | Cc1ccc(CN2C(=O)CSC(C)C2=O)cc1 (stereo not given)
7% | ? | 15% | -3 | Cc1ccc(Cl)cc1N1CCN(C(=O)CSc2nnc3n2C(C)(C)Cc2ccccc2-3)CC1
1% | 3.4% | -2% | nt | COc1ccc(CNC(=O)C23CC4CC(CC(Br)(C4)C2)C3)cc1
-16% | -0.5% | 1% | ? | N#Cc1c(C(F)(F)F)cc(-c2ccccc2Cl)[nH]c1=O
-9% | 0.8% | -1% | 1 | Cc1cc(NS(=O)(=O)c2ccc(NC(=O)CCSc3ccc(F)cc3)cc2)nc(C)n1
-2% | -1.1% | -35% | -1 | Cc1ccc(NC(=O)c2ccn(C(=O)Nc3ccccc3)n2)c(C)c1
? | ? | -35% | 0 | O=C1CC(c2ccccc2Cl)=NN(c2ncnc3ccccc23)C1=O
11% | -1.9% | nt | nt | Cn1nnnc1SCC(=O)Nc1cccc(S(=O)(=O)N2CCCCC2)c1
-7% | 2.3% | nt | nt | COc1cc(OC)cc(C(=O)N[C@H](C(=O)OCC(=O)Nc2cccnc2Cl)C(C)C)c1
-15% | 4.9% | -8% | nt | Cc1ccc(CS(=O)Cc2ccc(C(=O)NC3CCC(C)CC3)o2)cc1 (stereo not given)

(continued)
Rango release inh | Rango complex inh | miR-21 reporter | GLA inh pH 4.5 | compound
-6% | -1.8% | -15% | nt | O=c1[nH]c(-c2ccccc2)c(-c2ccccc2)o1
13% | -1.0% | -15% | -5 | CC1Cc2ccccc2N1CC(=O)Nc1ccc(S(N)(=O)=O)cc1 (stereo not given)
1% | ? | -2% | -9 | CCOc1ccc2nc(SCC(=O)N3c4ccccc4Sc4ccccc43)c(C#N)cc2c1
1% | -0.4% | 3% | 7 | O=C(O)CC1C(=O)OCN1C(=O)OCc1ccccc1 (stereo not given)
40% | -5.7% | nt | nt | Cc1n[nH]c(C)c1S(=O)(=O)N1CCCC(C(=O)O)C1 (stereo not given)
-2% | -0.8% | nt | nt | Cc1ccc(S(=O)(=O)Nc2ccc3c(c2)C(=O)N([C@H](C)CO)C[C@@H](C)[C@@H](CN(C)C(=O)Nc2cccc4ccccc24)O3)cc1
1% | 5.3% | 2% | -5 | CCN(C(=O)CSc1ccc2c(c1)OCCO2)C1CCS(=O)(=O)C1 (stereo not given)
-13% | 1.4% | -2% | 4 | CC(C)(C)OC(=O)N[C@H](Cc1ccccc1)C(=O)N1CCC(C(=O)O)CC1
14% | -0.1% | -23% | 15 | Cc1ccc(OCCOc2ccc(Br)cc2/C=N\NC(N)=O)cc1
0% | 2.0% | nt | nt | O=C(CCN1CCOCC1)NNC(=O)c1ccc([N+](=O)[O-])cc1[N+](=O)[O-]
0% | -1.7% | -1% | 3 | O=C(CSc1nnc(Cn2cnc3ccccc32)o1)Nc1cccc2ccccc12

Only part of the results is shown, so the mix of outcomes need not match the whole.
